Screening results: PubChem, National Center for Advancing Translational Sciences (NCATS)
MARV entry inh – qHTS for inhibitors of binding or entry into cells for Marburg Virus; Potency, µM (top dose mostly 37.8 µM), inactives show at the top dose activity change, negative = inhibition, hits mostly inhibitors; 300,000 compounds, 1.8% hits; AID 540276, 2011; Marburg virus pseudotyped entry inhibition, cell reporter; control for the full effect not named in the record; about a third of the inactives were read at about 46 µM; active = well fitted inhibition curve with a large enough effect; inconclusive = small, poorly fitted or top-dose-only effect, or effect the other way; inactive = flat fitted curve, though single readings scatter; tested in HEK293 cells; about a fifth of its hits are not listed in these tables; further: on the % scale 0 is the no-effect control and ±100 the full control effect; luciferase read-out
Cruzain noTriton – qHTS Assay for Promiscuous and Specific Inhibitors of Cruzain (without detergent); Cruzipain (Trypanosoma cruzi), P25779; purified cruzain, Z-FR-AMC fluorescence, no detergent; Potency, µM, for the others: max response, negative = inhibition, usual class: inhibitors; 200,000 compounds, 2.3% hits; AID 1476, 2009;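 further: plate controls were enzyme without inhibitor for no effect and buffer without enzyme for full effect; nearly all actives have a fitted effect of over 40% in size; top concentration of the series not given in the record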
Target sequence (P25779 123-467 limits assumed): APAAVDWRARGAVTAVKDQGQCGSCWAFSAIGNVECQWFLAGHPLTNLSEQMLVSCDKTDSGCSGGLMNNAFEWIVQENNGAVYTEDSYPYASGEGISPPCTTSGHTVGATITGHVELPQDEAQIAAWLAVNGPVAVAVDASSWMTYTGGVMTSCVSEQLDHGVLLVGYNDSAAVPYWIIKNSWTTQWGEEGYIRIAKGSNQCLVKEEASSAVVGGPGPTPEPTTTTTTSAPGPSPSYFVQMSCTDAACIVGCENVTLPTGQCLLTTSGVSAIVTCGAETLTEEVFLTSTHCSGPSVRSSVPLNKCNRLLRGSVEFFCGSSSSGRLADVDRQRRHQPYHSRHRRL
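Purified cruzain at 1.5 nM, pre-incubated 15 min with compound at room temperature in 100 mM sodium acetate pH 5.5, 5 mM DTT, 0.00005% Triton X-100. Reaction started with 2 uM Z-FR-AMC; AMC fluorescence increase over 60 s gives rate.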
SARS PLpro yeast – qHTS of Yeast-based Assay for SARS-CoV PLP; 330,000 compounds, 0.19% hits; S. cerevisiae expressing SARS-CoV PLpro, growth rescue; control for the full effect not named in the record; Potency, µM (highest dose often 32.9 µM), for the others: at the highest dose activity, positive = growth rescue; AID 485353, 2010; active means well fitted rising curve with a large enough effect; inconclusive means small, poorly fitted or top-dose-only effect; inactive means no such curve, though single readings can be large or run the other way; further: 0% is about no effect; nearly all actives have a fitted effect of over 55% in size; growth read by luminescence after 48 h
RE007 growth inh – qHTS Assay for Inhibitors of the HIV-1 protein Vpr. 360,000 compounds, 0.21% hits. Potency, µM (highest dose often 92.2 µM), inactives show at the top dose activity change, negative = less growth. AID 651644, 2012. S. pombe RE007 Vpr strain, BacTiter-Glo ATP luminescence, 24 h; control for the full effect not named in the record; active = well fitted falling curve with a large enough effect; inconclusive = small, poorly fitted or top-dose-only effect; inactive = no such curve, though single readings can be large or run the other way;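 further: on the % scale 0 is the no-effect control and ±100 the full control effect; nearly all actives have a fitted effect of over 50% in size; the assay follows cell death caused by Vpr and the record does not say whether a fall means rescue or toxicity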
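Fission yeast strain RE007, carrying one chromosomally integrated HIV-1 vpr copy, was seeded at OD 0.01 in PMG+AL medium with 23 nL pinned compound. After 24 h at 30 °C and 99% humidity, viability was read by BacTiter-Glo luminescence.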
2A StopGo – High Throughput Screening for Foot and Mouth Disease Virus Antivirals. AID 1159524, 2015. Potency, µM (top dose mostly 57.9 µM), without a hit: at the highest dose signal change, negative = less light. 410,000 compounds, 1.2% hits. human cells with a luciferase reporter of 2A StopGo recoding; control for the full effect not named in the record; active = well fitted falling curve with a large enough effect; inconclusive = small, poorly fitted or top-dose-only effect; inactive = no such curve, though single readings can be large or run the other way; tested in HEK293T cells; further: on the % scale 0 is the no-effect control and ±100 the full control effect; nearly all actives have a fitted effect of over 45% in size; luciferase light after 4 h
Cruzain Triton – qHTS Assay for Promiscuous and Specific Inhibitors of Cruzain (with detergent). Cruzipain (Trypanosoma cruzi), P25779. purified cruzain, Z-FR-AMC fluorescence, 0.01% Triton. Potency, µM, for inactives: max response, negative = inhibition, usual class: inhibitors. 200,000 compounds, 0.43% hits;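 further: plate controls were neutral wells for no effect and buffer without enzyme for full effect; nearly all actives have a fitted effect of over 40% in size; top concentration of the series not given in the record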
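Detergent-containing arm of a paired screen for aggregation-based inhibition: 0.01% Triton X-100 present. Cruzain at 1.5 nM cleaved 2 uM Z-FR-AMC at pH 5.5 with 5 mM DTT; AMC fluorescence gain over 60 s measured activity.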
NS1 inh – qHTS Assay for Inhibitors of Influenza NS1 Protein Function. S. cerevisiae slowed by influenza A NS1, growth recovery by OD600. Potency, µM (top dose mostly 46.1 µM), inactives show at the top dose activity, positive = more growth. 270,000 compounds, 0.4% hits. AID 2326, 2010; active means well fitted rising curve with a large enough effect; inconclusive means small, poorly fitted or top-dose-only effect; inactive means no such curve, though single readings can be large or run the other way; further: nearly all actives have a fitted effect of over 50% in size
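Read-out: OD600 growth recovery of NS1-expressing budding yeast. Cells grown overnight at 30C in -URA glucose medium, washed, resuspended and diluted 1:100 in 2% galactose assay medium, pH 6.0. Same strain lacking NS1 served as positive control.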
Lassa entry inh – qHTS for Inhibitors of binding or entry into cells for Lassa Virus; Potency, µM (highest dose often 37.9 µM), inactives show top-dose activity change, negative = inhibition, most hits filed as inhibitors; AID 540256, 2011; Lassa virus pseudotype entry inhibition, cell reporter; control for the full effect not named in the record; 300,000 compounds, 1.2% hits; active means well fitted inhibition curve with a large enough effect; inconclusive means small, poorly fitted or top-dose-only effect, or effect the other way; inactive means flat fitted curve, though single readings scatter; tested in HEK293 cells; further: on the % scale 0 is the no-effect control and ±100 the full control effect; nearly all actives have a fitted effect of over 50% in size; luciferase read-out
Starred values were filed as active, the others as inactive; ? = inconclusive; . = no result given; & = joins results of further samples; [ ] = dose if it differs, or a comment. Unless noted, the call rests on the fitted dose curve; in most records, active means well fitted curve in the direction sought with a large enough effect; inconclusive means small, poorly fitted or top-dose-only effect, or another doubt; inactive means no such curve, though single readings can be large; an effect the other way counts as inactive or inconclusive. Potency means the concentration at half of the fitted maximal effect.

SMILES	MARV entry inh	Cruzain noTriton	SARS PLpro yeast	RE007 growth inh	2A StopGo	Cruzain Triton	NS1 inh	Lassa entry inh
COc1nc2ccccc2c(=O)n1OCC(C)C	20%	7%	12%	-5%	10%	7.8%	-6%	1%
COc1ccc(-c2coc3cc(O)ccc3c2=O)cc1OC	-10%	-8%	1%	5%	36%[activator]	-0.4%	-8%	-13%
Cn1c(SCC(=O)Nc2nccs2)nnc1-c1ccco1	-3%	-4%	9%	-14%	-15%	-1.1%	3%	4%
O=C(O)c1[nH]c2ccccc2c1C(c1ccccc1)c1c(C(=O)O)[nH]c2ccccc12	.	.	11%	3%	50%[activator]	.	?	.
Cc1ccc(NC(=O)CC2C(=O)OCC3CCCCN32)cc1Cl (stereo unspecified)	10%	3%	.	?	-9%	-0.5%	-1%	8%
COC(=O)c1ccc(NS(=O)(=O)c2cc(-c3cc(C)no3)ccc2OC)cc1	.	.	29%	-4%	43%[activator]	.	-12%	.
COc1nc(C)cc(C)c1S(=O)(=O)c1ccc(Cl)cc1	.	.	1%	-4%	-6%	.	-35%	.
O=C(Nc1ccc2c(c1)OCO2)C1CCCCN1S(=O)(=O)c1ccccc1 (stereo unspecified)	0%	-22%	13%	-3%	-5%	11%	6%	7%
C[C@H](NC(=O)C1CCN(S(=O)(=O)c2ccccc2)CC1)C(=O)NCc1ccco1	.	.	1%	21%	-27%	.	-12%	.
Cc1sc2ncnc(SCC(=O)c3cccs3)c2c1C	-21%	?	7%	1%	33%[activator]	2.4%	-1%	?
CC(C)c1ccc2oc(-c3ccc(NC(=O)c4cccc(Br)c4)cc3)nc2c1	.	-1%	.	.	-25%	-2.5%	.	3%[46.1 µM]
O=C(COc1cccc2c1CCN(Cc1ccccc1)C2=O)NCc1ccco1	-5%	0%	18%	15%	-13%	-2.0%	-8%	-4%
COc1cccc(-c2nc(C=O)cs2)c1	11%	.	0%	-11%	10%	.	.	19%
COc1cccc2cc(/C(C)=N/Nc3nc(-c4cc(C)ccc4C)cs3)c(=O)oc12	16%	5µM*	?	1%	0%	-16%	2%	?
CCOC(=O)C1CCCN(S(=O)(=O)c2cc3c4c(c2)CCN4C(=O)CC3)C1 (stereo unspecified)	-16%	.	1%	3%	-25%	.	.	3%
CCOC(=O)c1ccc(NC(=O)c2cnn3c(=O)c4c(n(CC)c23)CCN(Cc2ccc(OC)cc2)C4)cc1	.	18%	.	.	0%	-7.1%	.	12%[46.1 µM]
CC[n+]1c(/C=C/c2c[nH]c3ccccc23)ccc2cc(C)ccc21	?	.	-9%	?	13µM*	.	.	?
CC(=O)Nc1ccc(Nc2ncnc3c2nnn3Cc2ccccc2Cl)cc1	-1%[46.1 µM]	.	-1%	-7%	-3%	.	-1%	-5%[46.1 µM]
CC(=O)Cc1nsc(NC(=O)c2ccco2)n1	14%	-10%	-3%	-14%	25%	-0.4%	-2%	29%
Cc1[nH]c2ccccc2c1CN1CCc2ccccc2C1	3%	?	-8%	3%	.	1.1%	-1%	3%
c1ccc2c(CCNCc3ccc4c(c3)OCO4)c[nH]c2c1	?	-6%	?	2%	2%	-8.9%	9%	4%
COc1ccc(NC(=O)CSc2nc3n[nH]c(C)c3c(=N)n2-c2ccc(Cl)c(C)c2)cc1OC	?	.	2%	-6%	?	.	2%	?
COc1cc2cc(CNc3ccccc3)c(=O)n(CC(=O)Nc3ccc(C)c(Cl)c3)c2cc1OC	.	-21%	.	.	32%[activator]	-4.7%	.	1%[46.1 µM]
Cc1ccc(C(=O)N/C(=C\c2ccc(-c3cc(Cl)ccc3Cl)o2)C(=O)NCc2cccnc2)cc1	?	-26%	2%	7%	-5%	-5.7%	-34%	11µM*
C=CCSC1=N/C(=C\c2cc(OCC)c(OC(C)=O)c([N+](=O)[O-])c2)C(=O)S1	?	-5%	-39%	-14%	-25%	-12%	-1%	-1%
COc1ccc(C(=O)CSc2c(C(C)C)cnc3c2c(=O)n(C)c(=O)n3C)cc1	.	24%	.	.	?	-2.5%	.	?
O=C(Nc1ccc(Cl)cc1)N1CCCN(Cc2ccc(F)cc2)C1	?	-13%	-4%	-11%	-24%	-21%	?	?
CCOC(=O)c1cnc2ccc(C(=O)OC)cc2c1NCCc1ccc(OC)c(OC)c1	-14%	22%	-12%	-16%	?	-7.2%	22%	?
O=C(CN1C(=O)CCC1=O)Nc1nc(-c2cccs2)cs1	1%	-4%	4%	2%	-1%	-2.7%	-1%	4%
C[C@@H]1NC(=O)N(CCCn2ccnc2)C1=O	.	.	2%	5%	-1%	.	6%	.
COc1ccccc1NC(=O)c1ccc(NC(=O)COC(=O)c2cccnc2Cl)cc1	?	.	-2%	-8%	-18%	.	.	10%[46.1 µM]
COc1cc(Cl)c(C)cc1Nc1c2c(nc3ccccc13)CCC2	?	-23%	.	.	?	-13%	.	?
Cc1c(-n2cccc2C=O)cccc1[N+](=O)[O-]	1%[46.1 µM]	.	1%	13%	-9%	.	1%	-11%
O=C(c1cccc(Cl)c1)C1CCCN(Cc2ccon2)C1 (stereo unspecified)	.	.	-1%	-21%	-5%	.	-1%	.
Cc1ccc(-c2cc(C(=O)N3CCC(C)CC3)c3ccccc3n2)cc1	.	.	-4%	4%	27%	.	-105%	.
COc1cccc(C2(O)CCSCC2CN(C)C)c1 (stereo unspecified)	11%	-2%	-8%	11%	-5%	-2.8%	-2%	18%
CCS(=O)(=O)N1CCN(C2CCC(C)CC2)CC1 (stereo unspecified)	-3%	-7%	-1%	13%	.	1.9%	-1%	13%
O=C(CN1C(=O)c2ccccc2C1=O)Nc1cccc2cccnc12	.	-9%	-4%	10%	-6%	-5.9%	-2%	.
CS(=O)(=O)N(CC(=O)NC1CCCCC1)c1cccc(Cl)c1	0%	0%	5%	6%	-22%	5.1%	8%	2%
CCn1c(SCc2nc3ccccc3c(=O)[nH]2)nnc1-c1ccncc1	-10%	-1%	-6%	7%[3.69 µM]	-23%	1.8%	3%	2%
CO/N=C/c1cccn1-c1nccc(OC)c1C#N	6%[46.1 µM]	.	1%	6%	-8%	.	7%	-10%[46.1 µM]
O=C(O)c1cccc(-n2nnnc2SCc2ccccc2Cl)c1	0%[46.1 µM]	.	1%	-9%	18%	.	3%	11%[46.1 µM]
CC(NCCC(c1ccccc1)c1ccccc1)c1ccccc1 (stereo unspecified)	?	-3%&0%	3%	-8%	13%&-5%	-1.4%&-3.0%	-18%	23µM*
CCOc1ccc(NC(=O)C2(c3cccs3)CCOCC2)cc1	.	6%	.	.	-5%	-0.9%	.	-18%[46.1 µM]
O=C(O)c1cc(-c2ccco2)nc2ccccc12	.	-1%&29%	20%	-19%	4%	-20%&-13%	3%	.
Cc1ccc(Nc2ncnc3c2cnn3-c2ccc(C)cc2)cc1	.	-6%	.	.	62%[activator]	-1.1%	.	.
O=C(CCCCCNC(=O)c1ccccc1)N/N=C/c1ccc(F)cc1	?	.	0%	12%	-4%	.	-5%	5%[46.1 µM]
COc1ccc(C(=O)NCc2nnc(SCC(=O)NCc3ccco3)o2)cc1	.	.	0%	6%	0%	.	5%	.
Cc1cccc(C(=O)N2CCCC(CCC(=O)N3CCN(c4ccccn4)CC3)C2)c1C (stereo unspecified)	.	.	-2%	8%	?	.	-19%	.
CCN1CCN(Cc2nnc(-c3ccccc3)o2)CC1	.	.	-1%	-5%	-12%	.	-1%	.
CCn1cc(C(=O)NCCc2ccc(Cl)cc2)c(=O)c2cc(S(=O)(=O)N3CCC(C)CC3)ccc21	?	-6%	.	.	-7%	-3.1%	.	16%[46.1 µM]
CN(C)C(C)(C)C#CCC(c1ccccc1)c1ccccc1	25%	7%	-1%	6%	-11%	0.0%	-30%	3%
Cc1cc(C(=O)N2CCCC(C(=O)c3cccc(C(F)(F)F)c3)C2)nc(C)n1 (stereo unspecified)	-5%[46.1 µM]	.	15%	0%	32%[activator]	.	-3%	-5%[46.1 µM]
CCSc1nnc(NC(=O)COc2cccc3ccccc23)s1	3%	13µM*	-2%	4%	.	-8.0%	3%	0%
CN(C)C=NC(=O)/C(C#N)=C/c1ccccc1	23%[46.1 µM]	.	12%	6%	16%	.	.	14%
COc1ccccc1CNC(=O)C1CC(c2ccccc2[N+](=O)[O-])=NO1 (stereo unspecified)	0%	7%	-6%	2%	20%	6.3%	-9%	.
O=C(COC(=O)CNS(=O)(=O)c1ccc(F)c(F)c1F)NCCc1ccccc1	6%	.	-1%	-12%	-3%	.	16%	5%
COC(=O)c1ccc(OC(=O)CCN2c3ccccc3Sc3ccccc32)cc1	23%	-10%	5%	1%	-1%	-4.0%	0%	6%
CC(=O)Nc1ccc(S(=O)(=O)NCC(=O)NCCc2ccc(S(N)(=O)=O)cc2)cc1	4%[46.1 µM]	.	0%	11%	-11%	.	.	-4%[46.1 µM]
NC(=NCc1ccco1)NC(=O)c1ccc(Cl)cc1	5%&5%[46.1 µM]	.	-3%	-4%	0%	.	-19%	15%
Additional results follow:
SMILES	MARV entry inh	Cruzain noTriton	SARS PLpro yeast	RE007 growth inh	2A StopGo	Cruzain Triton	NS1 inh	Lassa entry inh
COc1ccc(NC(=O)C(NS(=O)(=O)c2cccc3nsnc23)c2ccccc2)cc1 (stereo unspecified)	7%[46.1 µM]	-16%	.	.	14%	-4.8%	.	1%[46.1 µM]
Cc1ccc2nc(SCC(=O)N3CCN(C(=O)c4ccco4)CC3)[nH]c2c1	27%	-14%	15%	1%	-4%	-2.8%	0%	-9%
COc1ccc(OCC(=O)Nc2ncc3c(n2)CC(C)(C)CC3=O)cc1	3%	-5%	4%	-5%	-14%	2.9%	-1%	2%
CCCc1cc(=O)[nH]c(SCc2cc(=O)oc3c(C)c(C)ccc23)n1	?	9%	13%	6%	32%[activator]	-3.0%	2%	23%
